Assay outcomes deposited in PubChem BioAssay by several laboratories.
WNV NS2B-NS3 inh: blocks West Nile virus NS2B-NS3 protease activity. P06935. WNV NS2B-NS3 protease, fluorogenic substrate Ex360/Em465; stronger effect = lower value. z-score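 (tested at a level between 10 and 100 µM)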. 0.18% of 65,000 active. AID 577;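 active = z-score at -3 or under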;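 also: score is relative to mean and spread of the compound wells of a plate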
Target sequence (P06935 1371-1501 limits assumed): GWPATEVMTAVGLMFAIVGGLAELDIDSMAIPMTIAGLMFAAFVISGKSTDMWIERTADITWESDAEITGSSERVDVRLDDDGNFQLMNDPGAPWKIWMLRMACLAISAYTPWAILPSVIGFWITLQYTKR
Target sequence (P06935 1502-1679 limits assumed): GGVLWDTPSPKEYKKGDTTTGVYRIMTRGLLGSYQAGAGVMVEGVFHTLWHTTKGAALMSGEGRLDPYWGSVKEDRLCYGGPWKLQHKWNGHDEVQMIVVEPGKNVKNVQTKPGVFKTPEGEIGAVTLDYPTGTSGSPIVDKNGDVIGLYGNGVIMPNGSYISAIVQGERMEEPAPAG
Hsc70: Hsc70 inhibitors, probe displacement, primary screen, biochemical, fluorescence polarization (AID 568). Hsc70 fluorescence polarization, probe displacement; higher % means a stronger effect; strong numbers were not always called active. displacement, % at 20 µM; hits with a dose series show IC50 in µM. 83,000 tested, under 10 active;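 active = displacement above 50% without optical interference and an IC50 on retest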;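 also: ATPase domain with a fluorescein-tagged ATP probe; 0% = vehicle and 100% = excess ADP; read after one hour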
MT1-MMP promoter: MT1-MMP gene expression reporter suppression – cell-based, luciferase reporter, luminescence (AID 618). MT1-MMP promoter luciferase reporter cells, luminescence. calls from a first round at 10 µM; hits with a dose series show EC50 in µM. 0.62% of 87,000 active;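 active = over half of the reporter light lost at 10 µM or EC50 under 50 µM; inactive = the rest and hits that failed the dose series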;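 also: actives suppress MT1-MMP promoter-driven transcription so potencies describe inhibitors; HT1080 fibrosarcoma cells; overnight exposure; toxic or luciferase-blocking compounds were not removed from the actives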
Numbers without * were called inactive; i = inactive; nt = no result given; & = joins results of further samples.

Second line of a record: WNV NS2B-NS3 inh, Hsc70, MT1-MMP promoter
COc1ccc(CCNC(=O)CN(c2ccc(OC)c(OC)c2)S(C)(=O)=O)cc1
    0.05, 0.4%, i
O=C(COc1ccc2ccccc2c1Br)N1CCN(c2ccccn2)CC1
    -0.01, -2.0%, i
COc1ccc(OC)c(S(=O)(=O)n2cccn2)c1
    0.26, 1.7%, i
O=C(CN1CCC(n2nnc3ccccc32)CC1)Nc1ccc2c(c1)CCC2
    -0.35, -0.6%, i
CCOC(=O)CSc1nc2c(c(=O)n1-c1ccc(OCC)cc1)SCC2
    0.55, 2.2%, i
COc1ccc(CCNC(=O)c2ccccc2NC(=O)c2ccco2)cc1OC
    -1.1, -5.6%, i
Cc1ccc2[nH]c3c(=O)n(CCCN4CCOCC4)cnc3c2c1
    0.85, 2.1%, i
O=C1OC(Nc2ccc3c(c2)OCO3)c2ccccc21 (stereo unspecified)
    -0.48, 0.4%, i
C/C=C/C(=O)Nc1ccccc1Br
    nt, -1.3%, i
O=C(NCc1ccc2c(c1)OCO2)c1ccc2c(c1)C(=O)N(Cc1cccnc1)C2=O
    0.13, 2.2%, i
Cc1ccc(S(=O)(=O)N2CCN(S(=O)(=O)N3CCCCC3)CC2)c(C)c1
    -0.15, -1.3%, i
COc1ccc(CCn2nnc(-c3ccc(NC(C)=O)c(Cl)c3)n2)cc1
    nt, 7.2%, i
Cc1cccc(NC(=O)c2cnc3scc(C)n3c2=O)c1
    0.84, 3.0%, i
COc1ccccc1N1CCN(CC(=O)Nc2c(C)n[nH]c2C)CC1
    -0.26, -0.6%, i
O=C(NCc1ccccc1)c1c(O)c2cccc3c2n(c1=O)CCC3
    1.15, 4.3%, i
Cn1c(CN2CCN(c3ccc(Cl)cc3)CC2)nc2ccccc21
    0.25, 5.8%, i
Cn1c(CCN2CCCCC2)nc2cc(NC(=O)Nc3ccccc3)ccc21
    -0.49, -4.9%, i
Cc1cccc(-c2nnc3n2N=C(c2ccc(Br)cc2)CS3)c1
    0.07, -8.7%, i
CCOc1nc(C)ccc1-c1noc(-c2ccccc2OC)n1
    1.52, 0.3%, i
O=C(c1ccco1)N(Cc1ccco1)c1ccc(O)cc1
    -1.05, -5.1%, i

(list continues)
Second line of a record: WNV NS2B-NS3 inh, Hsc70, MT1-MMP promoter
Nn1c(SCc2cccc3ccccc23)nnc1-c1ccco1
    0.94, -9.9%, i
COc1cc(Cl)ccc1S(=O)(=O)n1nc(C)cc1C
    -2.08, -1.9%, i
CCSc1nnc(-c2cccnc2)n1Cc1ccco1
    nt, 5.5%, i
CCc1nc2c(cnn2-c2ccc(Cl)cc2)c(=O)n1-c1ccc(OC)cc1
    -0.62, -2.9%, i
CC(C)COC(=O)c1ccc(NC(=O)C2C3C=CC(C3)C2C(=O)O)cc1 (stereo unspecified)
    0.6, 2.2%, i
c1ccc(-n2nnnc2SCc2ccccn2)cc1
    nt, 3.6%, i
COc1cc2[nH]c(=S)n(Cc3ccco3)c(=O)c2cc1OC
    nt, 1.1%, i
NC(=O)CSCc1c(Cl)cccc1Cl
    -0.32, -4.6%, i
COc1ccc(CCNc2oc(COc3ccccc3F)nc2C#N)cc1
    -0.91, 0.9%, i
CC1(C)Cc2ccccc2-c2nnc(SCC(=O)Nc3ccc4c(c3)OCO4)n21
    1.37, -1.7%, i
COc1ccccc1C(=O)C(O)c1ccccc1OC (stereo unspecified)
    -0.21, 1.9%, i
COC(=O)c1ccccc1NC(=O)c1cccc(NC(=O)c2ccc(Br)o2)c1C
    1.92, -0.2%, i
COc1ccc(OCc2nc(N)nc(Nc3ccccc3)n2)cc1
    nt, 2.5%, i
O=C(c1ccccc1)c1ccc(N2CCOCC2)c(F)c1
    -0.83, -6.0%, i
CCOC(=O)Nc1cc(OCC)c(NC(=O)C2CC2)cc1OCC
    0.24, 7.9%, i
Cc1cc(NC(=O)c2ccc(Cn3nc(C)c(Br)c3C)o2)no1
    0.61, -7.0%, i
O=C(NCc1ccc2c(c1)OCO2)c1cc2c(s1)CS(=O)(=O)C2
    1.64, -0.2%, i
CCCOc1ccccc1C(=O)NCCCC(=O)O
    -0.43, 1.2%, i
Cc1cc(NC(=O)COC(=O)C2CCCN2C(=O)c2cccs2)no1 (stereo unspecified)
    0.91, -1.6%, i
COc1ccc(OC)c2c(N3CC(C)OC(C)C3)cc(C(F)(F)F)nc12 (stereo unspecified)
    -0.16, -2.0%, i

Later entries:
Second line of a record: WNV NS2B-NS3 inh, Hsc70, MT1-MMP promoter
CC1CCN(Cc2nc3c(c(=O)n(C)c(=O)n3C)n2Cc2c(F)cccc2Cl)CC1
    -0.87, 4.2%, i
COc1ccccc1N1CCN(C(c2ccccc2)c2nnnn2CCc2ccccc2)CC1 (stereo unspecified)
    nt, -1.1%, i
Cc1ccc(N(CC(=O)NCc2ccc(F)cc2)S(=O)(=O)c2cccs2)cc1
    nt, -3.3%, i
CC(=O)Nc1ccc(S(=O)(=O)N2CCN=C2C)cc1
    -0.01, -1.0%, i
O=C(c1noc2c1CCCCC2)N1CCN(C(c2ccccc2)c2ccccc2)CC1
    -0.29, -0.3%, i
COc1ccc(S(=O)(=O)NCCc2ccc(F)cc2)cc1
    0.76, -2.4%, i
C/C(Nc1cccc(F)c1)=C(/C#N)C(N)=O
    -1.07, -1.1%, i
O=C(c1ccccc1)N1CCN(C2CC3CCC2C3)CC1 (stereo unspecified)
    1.8, -8.6%, i
CCCNS(=O)(=O)c1ccc(OCC(=O)Nc2ccc3c(c2)OCCO3)cc1
    nt, 4.2%, i
CCn1cc(C(=O)N2CCn3c(nc4ccccc43)C2)c(=O)c2ccc(C)nc21
    -0.8, 0.9%, i
O=C(Cn1cnc2ccccc21)NCCCN1CCOCC1
    0.63, -4.4%, i
NC1=NC(c2cn(-c3ccccc3)nc2-c2cccs2)n2c(nc3ccccc32)N1 (stereo unspecified)
    0.03, 3.1%, i
O=C(Nc1cccc(Cl)c1)OCc1cncs1
    nt, 1.5%, i
O=C1c2ccccc2C(=O)C12OC(c1ccccc1)C1(C(=O)c3ccccc3C1=O)C2c1cccc([N+](=O)[O-])c1 (stereo unspecified)
    nt, -0.8%, i
O=C1N2CCSC2=NC1(Nc1ccccn1)C(F)(F)F (stereo unspecified)
    -1.14, 5.0%, i
CC(C)CC(=O)Nc1ncnc2c1C(=O)CC(C)(C)C2
    -1.07, 5.6%, i
O=C(CN1CCN(c2ccccn2)CC1)Nc1ccc2ccccc2c1
    -1.24, 4.3%, i
CC(=O)Nc1ccc(N2CCOCC2)c(C(=O)Nc2cccc(C)c2)c1
    0.09, -2.4%, i
CN(Cc1cc2ccccc2[nH]c1=O)S(C)(=O)=O
    -0.61, -3.3%, i
CCN1CCN(S(=O)(=O)c2cc(C)c(OC)cc2C)CC1
    -0.22, 6.8%, i

One compound at a time, from the list above. Order of screens: WNV NS2B-NS3 inh	Hsc70	MT1-MMP promoter
COc1ccc(S(=O)(=O)NCCc2ccc(F)cc2)cc1 across the screens: 0.76	-2.4%	i
CC(C)CC(=O)Nc1ncnc2c1C(=O)CC(C)(C)C2 across the screens: -1.07	5.6%	i
CC1CCN(Cc2nc3c(c(=O)n(C)c(=O)n3C)n2Cc2c(F)cccc2Cl)CC1 across the screens: -0.87	4.2%	i
Cc1ccc(N(CC(=O)NCc2ccc(F)cc2)S(=O)(=O)c2cccs2)cc1 across the screens: nt	-3.3%	i
CC(=O)Nc1ccc(N2CCOCC2)c(C(=O)Nc2cccc(C)c2)c1 across the screens: 0.09	-2.4%	i

(more compounds)
Second line of a record: WNV NS2B-NS3 inh, Hsc70, MT1-MMP promoter
N#CC12C(N)=NC3(OCCO3)C1(C#N)C1=C(CCC1)NC2c1ccccc1 (stereo unspecified)
    -0.58, -0.2%, i
O=C(O)C1C2C=CC(O2)C1C(=O)NC1CCCc2ccccc21 (stereo unspecified)
    -1.43, -2.3%, i
CC(=O)Nc1ccc(S(=O)(=O)NCC2CCC(C(=O)N3CCCCCC3)CC2)cc1 (stereo unspecified)
    0.04, -1.5%, i
N#Cc1nc(COc2ccc(-c3ccccc3)cc2)oc1NCc1cccnc1
    0.73, -3.1%, i
COc1ccc(N2CCN(C(=O)COc3ccccc3)CC2)cc1
    -1.63, -1.1%, i
CCOC(=O)c1c[nH]c2c(Cl)c(Cl)ccc2c1=O
    nt, -1.3%, i
N#CC1=C(N)Oc2cc(O)ccc2C1c1ccccc1 (stereo unspecified)
    2.42, 1.2%, i
O=C(NC1CCCCC1)C(c1ccccc1)N1CCCC1 (stereo unspecified)
    -0.43, 1.2%, i
O=C(CSc1ccc2nnc(-c3ccncc3)n2n1)Nc1ccccc1F
    0.41, -3.4%, i
COc1ccccc1-n1cnc2cc(NCc3cccs3)ccc21
    nt, -1.4%, i
CCOC(=O)C1C(=O)CC(C)(O)C(C(=O)OCC)C1c1ccc(N(CC)CC)cc1 (stereo unspecified)
    nt, 4.9%, i
CC12CCC(=O)N1C(C(=O)Nc1cccc3ccccc13)CS2 (stereo unspecified)
    0.52, 5.3%, i
COc1nnc(-c2ccc(N3CCCCC3)c(NC(C)=O)c2)c2ccccc12
    nt, 0.7%, i
Cc1nc(N)nc(-c2ccccc2O)n1
    nt, 4.5%, i
CCCOc1ccc(C(=O)NCCO)cc1
    nt, 2.5%, i
COc1ccc(OCCCC(=O)Nc2ccc3c(c2)OCCO3)cc1
    -0.32, 2.1%, i
CCOc1cc2c(cc1OCC)C(c1cc(OC)c(O)c(OC)c1)NCC2 (stereo unspecified)
    1.67, -2.6%, i
CCOC(=O)N1CCN(C(=O)c2cnn(-c3ccccc3)c2NC(=O)c2ccccc2F)CC1
    0.1, 0.3%, i
Cc1cc(C)c(NC(=O)CC(C)(C)C)c(Cl)c1
    nt, -1.1%, i
CC(C)OCP(=O)(c1ccccc1)c1ccccc1
    -0.82, 2.8%, i

Next compounds follow.
Second line of a record: WNV NS2B-NS3 inh, Hsc70, MT1-MMP promoter
COC(=O)Nc1ccccc1C(=O)N1CCCCC1
    -0.21, 0.2%, i
COc1cc(CC(=O)Nc2nccs2)cc(OC)c1OC
    2.02, 0.4%, i
COC(=O)C(NC(C)=O)(Nc1nc2ccc(S(C)(=O)=O)cc2s1)C(F)(F)F (stereo unspecified)
    -1.14, -10.9%, i
CCN1CCN(CC(=O)n2c3c(c4ccccc42)CC(C)CC3)CC1 (stereo unspecified)
    -0.76, 0.3%, i
Cc1ccc(/C=N/c2sc3c(c2C#N)CCC3)o1
    nt, -2.1%, i
O=C(c1ccc2nc(N3CCCCC3)sc2c1)N1CCN(c2ccccn2)CC1
    -0.41, 5.1%, i
CCCCS(=O)(=O)c1sc2nc3c(cc2c1N)CCCC3
    -0.00945, 2.0%, i
Cc1c(C(=O)OCC(=O)c2c(N)n(CC(C)C)c(=O)n(C)c2=O)oc2ccccc12
    1.41, 0.2%, i
CCOC(=O)c1cc(C(C)(C)C)oc1CNC(=O)c1c(C)oc2c1CCCC2
    nt, -1.1%, i
Cc1ccc(C)c(NC(=O)CSc2nnc(-c3ccccc3)o2)c1
    -1.39, 4.1%, i
CCC(CC)C(=O)NCCc1cc2ccc(C)cc2[nH]c1=O
    0.69, 0.5%, i
CCOC(=O)c1[nH]c2ccc(C)cc2c1N
    -0.39, 1.8%, i
O=C(O)c1cnn(-c2ccccc2)c1-n1cccc1
    -0.68, 2.0%, i
CN(C)CCOC(=O)C1(c2ccccc2)CCOCC1
    -1.38, -9.8%&0.8%, i
Cc1ccc2nc3c(cc(C(=O)NCC4CCCO4)c(=N)n3CCCOC(C)C)c(=O)n2c1 (stereo unspecified)
    2.28, -2.1%, i
COC(=O)c1cc(Br)c(=O)n(-c2ccc(C(C)=O)cc2)c1
    0.27, -3.6%, i
CC1(C(=O)NCc2ccccc2)Oc2ccccc2NC1=O (stereo unspecified)
    nt, -1.4%, i
CCc1ccc(C(C(=O)NC2CCCCC2)N(C(=O)CNC(=O)c2ccco2)c2cccnc2)cc1 (stereo unspecified)
    nt, 3.4%, i
COc1ccc(-n2c(Cn3nnc4ccccc43)nnc2SCC(=O)O)cc1
    -0.06, -1.8%, i
NC(=O)C1CCN(C(=O)COc2cccc3ccccc23)CC1
    nt, -3.8%, i

More compounds
Second line of a record: WNV NS2B-NS3 inh, Hsc70, MT1-MMP promoter
CC(C)c1nnc(N2C(=O)c3oc4ccccc4c(=O)c3C2c2ccco2)s1 (stereo unspecified)
    -0.85, -0.7%, i
Cc1ccc(C(CC(=O)O)C2CCOC(C)(C)C2)cc1 (stereo unspecified)
    nt, -0.4%, i
Cc1ccc(S(=O)(=O)NC(=O)Nc2cc(C)ccc2F)cc1
    -0.38, -9.4%, i
CCCCN(CCCC)S(=O)(=O)c1ccc(NS(=O)(=O)c2ccc(NC(C)=O)cc2)cc1
    nt, 0.3%, i
CN1C(=O)N(c2ccccc2)C(Nc2nncs2)C1(C)C (stereo unspecified)
    -0.63, 3.2%, i
O=C(c1cc2nc3c(c(C(F)(F)F)n2n1)CCc1ccccc1-3)N1CCN2CCCC2C1 (stereo unspecified)
    -0.35, 3.6%, i
Cc1ccc(/C=N/n2nnnc2N)o1
    0.17, -3.3%, i
CCOC(=O)c1cnc(-n2nc(C)cc2C)nc1N(CC)CC
    1.76, 7.0%, i
Cc1nc(-c2ccccc2)cc(N2CCCC2)n1
    2.02, -3.1%, i
COc1ccc(NC(=O)c2ccco2)c(NC(=O)Cc2cccs2)c1
    1.2, -1.6%, i

Only part of the results is shown, so the mix of outcomes need not match the whole.
